# miR-21 FLuc: qHTS Assay for Modulators of miRNAs and/orActivators of miR-21. HeLa miR-21 FLuc reporter, luciferase, 48 h. Potency, µM (highest dose often 38.3 µM), inactives show top-dose reporter change, positive = more light. 340,000 tested, under 10 active. AID 2288, 2010; active = well fitted rising curve with a large enough effect; inconclusive = small, poorly fitted or top-dose-only effect; inactive = no such curve, though single readings can be large or run the other way;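 further: % of control where 0% means no effect; miR-21 action dims this reporter so a rising signal means less miR-21 action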
#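 Using DMEM plus 10% FBS, HeLa miR-21-FLuc cells are incubated with test compounds (final up to about 40uM) for 48 hours; firefly luciferase signal is then imaged following reagent-mediated lysis.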
# Rango dissoc inh: qHTS Assay for Inhibitors of RanGTP induced Rango (Ran-regulated importin-beta cargo) - Importin beta complex dissociation. Snurportin-1 (Homo sapiens) + GTP-binding nuclear protein Ran (Homo sapiens) + Importin …. Biochemical FRET Rango-importin beta, RanGTP-induced dissociation. Potency, µM (doses to about 46.1 µM), for the others: at the highest dose activity change, negative = inhibition. hit rate 0.071% among 340,000; active means falling FRET ratio curve, often poorly fitted, with flat reads before Ran was added; inconclusive means other falling curves, or compound fluorescence or quenching; inactive means flat or rising ratio curve;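 further: potency means the concentration at half of the fitted maximal effect; % of control where 0% means no effect; nearly all actives have a fitted effect of over 45% in size; -100% = wells without RanGTP and RCC1; the record marks most hits as doubtful in a second field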
#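 Compounds sat 5 min at room temperature with 0.1 uM Rango biosensor plus 0.25 uM importin beta, then FRET pre-read. RanGTP-RCC1 (0.6 uM Ran, 2mM GTP, 0.2 uM RCC1) added for 45 min, and the CFP/YFP post-read measured blocked complex dissociation.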
# Rango complex inh: qHTS Assay for Inhibitors of Rango (Ran-regulated importin-beta cargo) - Importin beta complex formation; hit rate 0.031% among 340,000; Potency, µM (doses to about 92.2 µM), for inactives: top-dose inhibition of complex formation; Importin subunit beta-1 (Homo sapiens), Q14974; Rango CFP/YFP FRET sensor + importin beta, 45 min; active = rising FRET ratio curve, often small or poorly fitted; inconclusive = mostly compound fluorescence or quenching in the first reads; inactive = flat curves in all reads;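 further: potency means the concentration at half of the fitted maximal effect; 0% = DMSO wells and 100% = buffer wells lacking importin beta; nearly all actives have a fitted effect of over 15% in size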
# Target sequence (Q14974 whole entry, looked up): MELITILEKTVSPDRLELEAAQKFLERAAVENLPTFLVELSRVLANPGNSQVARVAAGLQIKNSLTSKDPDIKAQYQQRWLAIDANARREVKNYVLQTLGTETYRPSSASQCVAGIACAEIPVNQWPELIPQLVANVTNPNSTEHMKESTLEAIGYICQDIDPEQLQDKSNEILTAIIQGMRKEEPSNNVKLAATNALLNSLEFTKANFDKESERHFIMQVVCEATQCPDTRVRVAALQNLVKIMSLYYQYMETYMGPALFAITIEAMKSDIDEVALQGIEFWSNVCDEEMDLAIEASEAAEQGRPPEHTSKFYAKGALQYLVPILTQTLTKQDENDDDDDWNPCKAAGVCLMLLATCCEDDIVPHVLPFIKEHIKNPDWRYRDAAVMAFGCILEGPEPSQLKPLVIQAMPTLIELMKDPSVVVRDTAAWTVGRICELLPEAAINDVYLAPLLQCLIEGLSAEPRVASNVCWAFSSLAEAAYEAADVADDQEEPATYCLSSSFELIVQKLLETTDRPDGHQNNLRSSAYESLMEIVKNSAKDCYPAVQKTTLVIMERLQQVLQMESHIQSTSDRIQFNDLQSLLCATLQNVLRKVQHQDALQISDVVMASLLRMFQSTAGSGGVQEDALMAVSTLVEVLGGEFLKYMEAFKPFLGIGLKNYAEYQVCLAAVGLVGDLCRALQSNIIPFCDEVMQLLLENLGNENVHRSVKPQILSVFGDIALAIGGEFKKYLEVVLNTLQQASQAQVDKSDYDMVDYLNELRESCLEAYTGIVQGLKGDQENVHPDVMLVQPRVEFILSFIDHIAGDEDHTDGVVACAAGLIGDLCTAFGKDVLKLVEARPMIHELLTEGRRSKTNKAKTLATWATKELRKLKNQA
#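 Inhibition scored from the CFP 486 nm/YFP 530 nm FRET ratio 45 min after adding 0.125 microM importin beta to 50 nM Rango biosensor preincubated 5 min with compound (room temperature, PBS with DTT, Tween-20, BSA). No-importin wells as positive control.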
# GLA inh pH 4.5: qHTS Assay for Inhibitors of Human alpha-Galactosidase at pH 4.5; 230,000 tested, under 10 active; purified enzyme, 4-MU-alpha-Gal fluorescence, pH 4.5; activity change, negative = inhibition, % at 105 µM; Alpha-galactosidase A (Homo sapiens), P06280; inconclusive = small, poorly fitted or top-dose-only inhibition, or a rising curve; inactive = flat fitted curve, though single readings scatter; no compound was filed as active;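 further: 0% = full activity with enzyme and -100% = basal without enzyme; dose as in the result columns while the protocol names 77 µM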
# * hit, by the source's call; u = inconclusive; x = no result given; & = joins results of further samples.
molecule	miR-21 FLuc	Rango dissoc inh	Rango complex inh	GLA inh pH 4.5
O=C(COc1ccc(S(=O)(=O)N2CCOCC2)cc1)N1CCN(Cc2ccc3c(c2)OCO3)CC1	24%	-12%	0.1%	-9
CCC(CO)(C(=O)OC1CC2CCC(C1)N2C)c1ccccc1 (configuration not stated)	-2%	3%	-2.5%	x
CC(C)(C)C(=O)C(Oc1ccc(Cl)cc1)n1cncn1 (configuration not stated)	x	10%	3.5%	-3
CNC(C(=O)c1ccccc1)C(OC(C)=O)c1cccc([N+](=O)[O-])c1 (configuration not stated)	0%	-7%	0.1%	-5
CC(C)NS(=O)(=O)c1ccc(OCC(=O)N2CCN(Cc3ccccc3)CC2)cc1	x	-2%	3.6%	x
Cc1cccc(NP2(=O)NCCCN2)c1	x	11%	-3.6%	x
OC(CCNCCc1c[nH]c2ccccc12)C(F)(F)F (configuration not stated)	-1%	-2%	-1.2%	-10
CCOP(=S)(OCC)Oc1ccc2c(C)c(Cl)c(=O)oc2c1	x	-12%	0.1%	0
Cc1ccc(OCC(=O)N2CCCC(N3CCN(c4ccc(F)cc4)CC3)C2)cc1 (configuration not stated)	8%	-2%	-0.2%	x
COc1cccc(CNC2CN3CCC2CC3)c1OC (configuration not stated)	-2%	-23%	5.2%	10
CCCC(=O)C1C(=O)NC(=O)NC1=O	-7%	-5%	-3.7%	-6
Nc1c(C(=O)NC2CCCC2)c2nc3ccccc3nc2n1CC1CCCO1 (configuration not stated)	9%	u	u	7
COc1ccccc1C1C([N+](=O)[O-])=C(N)Oc2c1c(=O)oc1ccccc21 (configuration not stated)	-1%	-8%	-2.2%	-18
CCC(=NC1CCN(Cc2ccccc2)CC1)c1c(O)[nH]c(=O)[nH]c1=O	-18%	1%	-6.0%	-16
O=C(Nc1ccc(OC(=O)N2CCCCC2)cc1)N1CCOCC1	-14%	-15%	-2.7%	12
CC12CC1(C)C(=O)N(c1cc(Cl)cc(Cl)c1)C2=O (configuration not stated)	x	-11%	1.8%	x
CCOC(=O)CNC(=S)N1CC2C[C@@H](C1)Cn1c2cccc1=O	-2%	5%	-1.0%	x
Cc1ccc(C2N3CCCN23)cc1 (configuration not stated)	-10%	-4%	3.2%	3
COC(=O)C(O)(c1ccc(NC(=O)c2ccco2)c(OC)c1)C(F)(F)F (configuration not stated)	-22%	-6%	5.4%	-2
COP(=S)(OC)Oc1ccc(Sc2ccc(OP(=S)(OC)OC)cc2)cc1	x	0%	-5.0%	x
C[N+]1(C)C2CCC1CC(OC(=O)c1c[nH]c3ccccc13)C2 (configuration not stated)	x	-11%	-2.5%	2
COc1cc(N2CCOCC2)ccc1C=C1C(=O)NC(=O)NC1=O	-8%	10%	0.2%	1
CCOP(=O)(Cc1ccc(C#N)o1)OCC	-2%	1%	-0.9%	-1
CC1CCN(C(=O)C(C)Cl)CC1 (configuration not stated)	3%	-14%	-2.9%	-1
COC(=O)C1=C(c2ccc(-c3ccccc3)c(F)c2)C[C@@H]2CC[C@H]1N2C(=O)N1CCOCC1	x	1%	3.3%	x
NC1CCCCC1N=Cc1c(O)n(Cc2ccc(F)cc2)c(=O)[nH]c1=O (configuration not stated)	0%	-6%	-1.4%	-2
COC(=O)C1=C(c2ccc(Cl)c(C(F)(F)F)c2)C[C@@H]2CC[C@H]1N2C(=O)NCc1ccco1	x	-6%	-0.1%	x
CCCCOCCCN1C(C)=CC(=C2C(=O)NC(=S)NC2=O)C=C1C	1%	13%	3.4%	-5
CC1=C(C(=O)Nc2ccccc2)SCCO1	-36%	-13%	-1.2%	2
NCCNc1ccc([N+](=O)[O-])c2cccnc12	-8%	15%	0.9%	-24

# The closing 7 compounds of the part before are carried over, then new ones follow:
molecule	miR-21 FLuc	Rango dissoc inh	Rango complex inh	GLA inh pH 4.5
CC1CCN(C(=O)C(C)Cl)CC1 (configuration not stated)	3%	-14%	-2.9%	-1
COC(=O)C1=C(c2ccc(-c3ccccc3)c(F)c2)C[C@@H]2CC[C@H]1N2C(=O)N1CCOCC1	x	1%	3.3%	x
NC1CCCCC1N=Cc1c(O)n(Cc2ccc(F)cc2)c(=O)[nH]c1=O (configuration not stated)	0%	-6%	-1.4%	-2
COC(=O)C1=C(c2ccc(Cl)c(C(F)(F)F)c2)C[C@@H]2CC[C@H]1N2C(=O)NCc1ccco1	x	-6%	-0.1%	x
CCCCOCCCN1C(C)=CC(=C2C(=O)NC(=S)NC2=O)C=C1C	1%	13%	3.4%	-5
CC1=C(C(=O)Nc2ccccc2)SCCO1	-36%	-13%	-1.2%	2
NCCNc1ccc([N+](=O)[O-])c2cccnc12	-8%	15%	0.9%	-24
CCc1ccc(NC2=NCCCS2)cc1	-12%	14%	-2.3%	x
O=c1[nH]c(=O)n(Cc2ccccc2)c(O)c1C=Nc1ccc(CN2CCOCC2)cc1	-1%	-12%	-3.3%	1
CN1CC[C@@]23CCCC[C@@H]2[C@@H]1Cc1ccc(O)cc13	-15%	-15%	-1.8%	x
COc1ccc(C2C(C#N)=C(N)Oc3c2c(=O)oc2ccccc32)cc1Cn1cc([N+](=O)[O-])cn1 (configuration not stated)	-4%	-2%	0.5%	1
Nc1ncnc2c1ncn2[C@@H]1O[C@H](COP(=O)(O)CP(=O)(O)O)[C@@H](O)[C@H]1O	x	13%	2.3%	x
COC(=O)c1ccc(N2C(=O)CC(N3CCC(n4c(=O)[nH]c5ccccc54)CC3)C2=O)cc1 (configuration not stated)	0%	-12%	-2.6%	-1
Cn1c(O)c(C=NC2CCCCCC2)c(=O)[nH]c1=S	-6%	-5%	-2.3%	3
Cc1nc2ccccc2c(=O)n1-c1cccc(O)c1	-11%	-9%	4.6%	5
CCOc1ccc(-n2c(O)c(/C=C3\C=Nc4ccccc43)c(=O)[nH]c2=O)cc1	2%	u	u	x
CC1CCCCN1CC(=O)c1ccc2cc[nH]c2c1 (configuration not stated)	-12%	-10%	u	3
CC(C)C(C)(NC(=O)c1cccn(Cc2ccc3c(c2)OC(F)(F)O3)c1=O)C(N)=O (configuration not stated)	-7%	-8%	-4.6%	-5
S=C1CN=C(c2ccccc2Cl)c2cc(Cl)ccc2N1	-1%	-2%	-3.4%	-12
CCOC(=O)[C@]12Cc3cc(OC)c(OC)cc3[C@H]1N(Cc1ccccc1)C(=O)c1ccccc12	x	3%	-0.7%	x
CCCNS(=O)(=O)c1ccc(OCC(=O)N2CCN(Cc3ccc4c(c3)OCO4)CC2)cc1	17%	20%	1.1%	-2
Cc1ccccc1-n1c(O)c(/C=N/Nc2nc3c(c(=O)n(C)c(=O)n3C)n2C)c(=O)[nH]c1=S	8%	-27%	u	-2
COC(=O)C(O)(c1ccc2c(c1)CCCN2)C(F)(F)F (configuration not stated)	-3%	7%	u	-7
CC[n+]1c(/C=C/C=C/c2ccc(N(C)C)cc2)sc2ccccc21	u	-25%	5.8%	0
CC(C)NC(=O)Cn1cc(C(=O)c2ccccc2)c2ccccc21	6%	-11%	-3.0%	x
Nc1c(C(=O)NCc2ccco2)c2nc3ccccc3nc2n1CCN1CCCCC1	22%	u	u	-6
CNCC(O)c1cc(F)c(OCc2ccccc2)c(OCc2ccccc2)c1F (configuration not stated)	x	1%	-0.9%	x
C=CCn1c(O)c(/C=N/N2CCOCC2)c(=O)[nH]c1=S	-7%	-3%	0.9%	2
COC(=O)C(O)(c1ccc(N(C)C(=O)c2cccs2)cc1)C(F)(F)F (configuration not stated)	-5%	0%	0.2%	5
CCCCN(Cc1ccccc1)C1CCN(CCc2ccccc2)CC1	7%	5%	-2.0%	0
O=C1N(c2ccccc2)C(c2cccnc2)N2CCCN12 (configuration not stated)	-2%	-3%	2.9%	-5
C[C@]12CC[C@H](OS(=O)(=O)O)CC1=CC[C@@H]1[C@@H]2CC[C@]2(C)C(=O)CC[C@@H]12	x	12%&0%&-10%	-3.0%&-0.4%&2.5%	x
CC(Cc1ccccc1)NCC(=O)Nc1cc(N(C)C)nc2ccccc12 (configuration not stated)	18%	-11%	-2.3%	3
CN(C)CP(=O)(Nc1ccccc1)N(C)C (configuration not stated)	-5%	3%	0.7%	-4
COC(=O)[C@@H](N)CCCN=C(N)N[N+](=O)[O-]	3%	2%	0.6%	7&-8
Cc1onc(-c2c(Cl)cccc2Cl)c1C(=O)Nc1ccc2c(C(F)(F)F)cc(=O)oc2c1	2%	28%	-0.3%	5
O=C(CN1C(=O)COc2ccccc21)N1CCC2(CC1)OCCO2	-5%	2%	-1.1%	x
O=C1NC(=O)N(Cc2ccco2)C(=O)/C1=C/C=C/c1ccco1	4%	u	u	-6
C=CCCC1(C2=CCCCC2)C(=O)NC(=O)NC1=O	x	-9%	-1.5%	x
CN1CCc2c([nH]c3ccccc23)C1	-4%	-4%	4.6%	-1
COc1ccc(Br)cc1CN1CCN(C(=O)Cc2ccccc2)CC1	-2%	-3%	6.5%	3
CCc1cccc(CC)c1NC(=S)N1CC2CC(C1)c1cccc(=O)n1C2 (configuration not stated)	2%	1%	0.3%	5
Cc1ccc2nsnc2c1-n1c(C)nc2ccccc2c1=O	-11%	1%	-0.2%	0
CC(C)N1CCN(Cc2cccc([N+](=O)[O-])c2)CC1	0%	3%	-0.8%	2
Cc1nn(-c2ccccc2)c2c1C(c1ccc3c(c1)OCO3)SCC(=O)N2 (configuration not stated)	4%	2%	0.8%	-8
CC(=O)NC(=O)NC(C)Cc1ccccc1 (configuration not stated)	-8%	-13%	-3.2%	-5

# Compounds shown so far that contain a cyano group (2):
molecule	miR-21 FLuc	Rango dissoc inh	Rango complex inh	GLA inh pH 4.5
CCOP(=O)(Cc1ccc(C#N)o1)OCC	-2%	1%	-0.9%	-1
COc1ccc(C2C(C#N)=C(N)Oc3c2c(=O)oc2ccccc32)cc1Cn1cc([N+](=O)[O-])cn1 (configuration not stated)	-4%	-2%	0.5%	1

# Whole records, quoted from the list. Values in the order: miR-21 FLuc, Rango dissoc inh, Rango complex inh, GLA inh pH 4.5
# CC(=O)NC(=O)NC(C)Cc1ccccc1 (configuration not stated) is entered as -8%, -13%, -3.2%, -5
# CCc1cccc(CC)c1NC(=S)N1CC2CC(C1)c1cccc(=O)n1C2 (configuration not stated) is entered as 2%, 1%, 0.3%, 5
# CN1CCc2c([nH]c3ccccc23)C1 is entered as -4%, -4%, 4.6%, -1
# COc1ccc(Br)cc1CN1CCN(C(=O)Cc2ccccc2)CC1 is entered as -2%, -3%, 6.5%, 3
# Cc1nn(-c2ccccc2)c2c1C(c1ccc3c(c1)OCO3)SCC(=O)N2 (configuration not stated) is entered as 4%, 2%, 0.8%, -8

# This is a subset (hit frequency here may not be typical).
